Bioassay records deposited in PubChem BioAssay by National Center for Advancing Translational Sciences (NCATS).
gsp agonist: qHTS for Agonist of gsp, the Etiologic Mutation Responsible for Fibrous Dysplasia/McCune-Albright Syndrome: qHTS | gsp mutant cells, cAMP HTRF, 30 min; control for the full effect not named in the record | Potency, µM (top dose mostly 76.9 µM), for the others: at the highest dose activation (cAMP increase), most hits filed as activators | AID 624287, 2012 | 340,000 compounds, 0.13% hits; active = well fitted activation curve with a large enough effect; inconclusive = small, poorly fitted or top-dose-only effect, or another doubt; inactive = no such curve, though single readings can be large or run the other way; cell line not stated here;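 further: phosphodiesterase inhibitor Ro 20-1724 added with compounds to block cAMP breakdown; potency means the concentration at half of the fitted maximal effect; nearly all actives have a fitted effect of over 60% in size; about a fifth of the inactives were tested at one dose only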
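Cells in DMEM/10% FBS with G418 were pretreated with compounds in DMSO plus […] (300 uM stock) for 30 min at 37C. cAMP was measured by HTRF (cAMP-d2 plus anti-cAMP antibody-K) after 30 min at room temperature.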
Sfp inh: qHTS Assay for Inhibitors of Bacillus subtilis Sfp phosphopantetheinyl transferase (PPTase); 4'-phosphopantetheinyl transferase ffp (Bacillus subtilis), Q9F4F7; AID 1490, 2009; Biochemical Sfp PPTase activity, qHTS; 310,000 compounds, 3.5% hits; Potency, µM, without a hit: max response, negative = inhibition, usual class: inhibitors; active means well fitted inhibition curve with a large enough effect; inconclusive means small, poorly fitted or top-dose-only effect, or another doubt; inactive means no such curve, though single readings can be large or run the other way;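 further: the enzyme is Sfp with the accession as filed and its product quenches rhodamine fluorescence; potency means the concentration at half of the fitted maximal effect; 0% = enzyme reaction without inhibitor and -100% = no enzyme wells; top concentration of the series not given in the record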
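After 15 min at room temperature with compound, 15 nM Sfp received 5 uM rhodamine-CoA plus 12.5 uM BHQ-2-ybbR (50 mM Hepes pH 7.6, 10 mM MgCl2). Rate came from the fluorescence difference over 30 min, ex 525/em 598 nm.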
CtBP-E1A blk: qHTS Assay for Inhibitors of the CtBP/E1A Interaction; CtBP / adenovirus E1A interaction (AlphaScreen); AlphaScreen GST-E1A/His-CtBP binding, 1536-well; active compounds read low; control for the full effect not named in the record; activity change, % (test concentration not listed); 340,000 compounds, 0.49% hits; in the data active means activity change below about -65%; inconclusive means about -30% to -65%; inactive means above about -30%; further: on the % scale 0 is the no-effect control and ±100 the full control effect
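Steps: dispense buffer (Tris pH 8.0, NaCl 300 mM, TCEP 1 mM, BSA, Tween 20); add 5X protein mix (GST-E1A, His-CtBP, 125 nM each); pin 23 nL compound; 2 h at 37 °C, dark; add 5X beads (50 ug/mL); 1 h; read.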
TRPV1 potentiator: HTS Assay for Compounds that Act as Potentiators of the Vanilloid Receptor 1; 320,000 compounds, 0.02% hits; Transient receptor potential cation channel subfamily V member 1 (Homo sapiens), Q8NER1; potentiation, % at 8.33 µM; AID 540277, 2011; TRPV1-expressing cells, Fluo-8 calcium influx, capsaicin EC20 potentiation; host cell line not named in the record; control for the full effect not named in the record; active means potentiation above 80%; inconclusive means 30% to 80%; inactive means below 30%; further: 0% is about no effect
Target sequence (Q8NER1 whole entry, looked up): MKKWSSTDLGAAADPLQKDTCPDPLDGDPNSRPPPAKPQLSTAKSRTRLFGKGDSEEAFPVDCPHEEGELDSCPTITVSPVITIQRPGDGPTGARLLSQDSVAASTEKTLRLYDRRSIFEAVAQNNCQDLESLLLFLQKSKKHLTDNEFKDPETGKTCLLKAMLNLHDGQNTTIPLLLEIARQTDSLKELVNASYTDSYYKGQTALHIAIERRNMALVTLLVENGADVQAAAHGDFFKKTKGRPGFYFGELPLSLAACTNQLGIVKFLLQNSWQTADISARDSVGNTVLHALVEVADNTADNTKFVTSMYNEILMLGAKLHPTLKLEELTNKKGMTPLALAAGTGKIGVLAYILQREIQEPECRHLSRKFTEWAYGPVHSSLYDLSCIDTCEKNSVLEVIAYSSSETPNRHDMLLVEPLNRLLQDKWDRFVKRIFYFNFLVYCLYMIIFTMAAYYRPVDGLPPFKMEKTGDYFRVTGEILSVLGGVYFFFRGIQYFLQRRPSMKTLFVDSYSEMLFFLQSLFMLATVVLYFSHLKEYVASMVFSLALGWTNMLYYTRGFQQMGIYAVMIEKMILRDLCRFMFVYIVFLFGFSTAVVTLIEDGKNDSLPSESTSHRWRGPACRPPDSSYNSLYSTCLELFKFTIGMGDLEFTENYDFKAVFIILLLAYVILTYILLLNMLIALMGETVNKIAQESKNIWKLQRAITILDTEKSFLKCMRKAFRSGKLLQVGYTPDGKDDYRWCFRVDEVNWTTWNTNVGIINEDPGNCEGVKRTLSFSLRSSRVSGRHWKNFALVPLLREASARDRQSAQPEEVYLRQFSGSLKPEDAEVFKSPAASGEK
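Cells expressing TRPV1 were dye-loaded with Fluo-8 and read kinetically: 10 s baseline, 3 min after compound (agonist portion), then 2 min after EC20 capsaicin (allosteric enhancer portion). Calcium-bound dye fluorescence at 480/520 nm.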
gsp antagonist: qHTS for Antagonists of gsp, the Etiologic Mutation Responsible for Fibrous Dysplasia/McCune-Albright Syndrome: qHTS; Potency, µM (series often up to 76.9 µM), for inactives: at the highest dose activity change, negative = inhibition, usual class: inhibitors; gsp-mutant cells, cAMP HTRF, 30 min; control for the full effect not named in the record; 340,000 compounds, 0.4% hits; AID 624288, 2012; active = falling curve of any shape with a large fitted effect; inconclusive = falling curve, mostly with a smaller effect; inactive = flat or rising curve; cell line not stated here;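 further: intracellular cAMP measured with PDE inhibitor Ro 20-1724 present during compound exposure; potency means the concentration at half of the fitted maximal effect; on the % scale 0 is the no-effect control and ±100 the full control effect; nearly all actives have a fitted effect of over 65% in size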
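HTRF cAMP measurement after 30 min RT detection following 30 min, 37C compound treatment alongside […] (added as 300 uM solution) in G418-selected cells seeded at 2000/well and grown 16–24 h.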
Menin-MLL FL inh: qHTS Assay for Inhibitors Targeting the Menin-MLL Interaction in MLL Related Leukemias: Competition With Fluorescein Labeled MLL-derived Peptide; Fluorescence polarization, fluorescein-MLL peptide displacement from menin; FP activity change, % at 61.4 µM; 290,000 tested, under 10 active; AID 1766, 2009; inconclusive = falling polarisation curve, or a change in total fluorescence; inactive = total fluorescence flat and polarisation flat or rising; no compound was filed as active; the % refers to the polarisation; negative = inhibition;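 further: % of control where 0% means no effect; inhibitors lower the polarisation; unlabelled MLL peptide was the positive control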
ClpP mod: qHTS Assay for Activators of ClpP; purified B. subtilis ClpP, FRET peptide cleavage, 20 min; ATP-dependent Clp protease proteolytic subunit (Bacillus subtilis (strain 168)), P80244; 340,000 compounds, 1.9% hits; AID 651965, 2013; Potency, µM (top dose mostly 57.5 µM), for inactives: top-dose activity change, negative = active; active = well fitted falling curve with a large enough effect; inconclusive = small, poorly fitted or top-dose-only effect; inactive = no such curve, though single readings can be large or run the other way; further: potency means the concentration at half of the fitted maximal effect; the source files actives as falling curves though it sought activators and does not explain the sign; nearly all actives have a fitted effect of over 65% in size; many hits overshoot -100%
Target sequence (P80244 whole entry, looked up): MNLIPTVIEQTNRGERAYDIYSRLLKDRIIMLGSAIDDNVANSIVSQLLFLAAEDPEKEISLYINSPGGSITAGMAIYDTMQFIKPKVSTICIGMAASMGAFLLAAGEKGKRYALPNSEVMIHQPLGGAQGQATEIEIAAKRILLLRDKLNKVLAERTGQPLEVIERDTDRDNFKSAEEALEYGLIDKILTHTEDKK
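ClpP 10 microg/mL final, pH 8 Tris/KCl buffer with BSA, glycerol, Tween-20; compound pinned in; FRET-FV substrate; RT 20 min; Ex320/Em430; ΔFRET vs ADEP 5.8 microM, DMSO, no enzyme.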
* = called active by the depositor; ? = inconclusive; . = no result given; [ ] = another dose, or the depositor's remark. Outcome played no part in choosing rows; about 5.3% have a hit in one of these screens.

SMILES | gsp agonist | Sfp inh | CtBP-E1A blk | TRPV1 potentiator | gsp antagonist | Menin-MLL FL inh | ClpP mod
O=C(c1ccccc1)N1CCN(CC(O)COc2cccc3ccccc23)CC1 (centres undefined) | -4% | 4% | . | 12 | -1% | -0.8 | -5.9%
COc1ccc(NC2CCCN(C(=O)c3cccc(N4CCNC4=O)c3)C2)cc1 (centres undefined) | 1% | 15% | -3 | 6 | 1% | . | -0.6%
COc1ccc(N2CC(C(=O)Nc3nnc(SCC(=O)N4CCCC4)s3)CC2=O)cc1 (centres undefined) | 22% | -8% | -4 | -1 | 5% | 0.3 | 2.0%
O=C(/C=C/c1ccccc1[N+](=O)[O-])OCC(=O)N1CCCC1 | 0% | . | 4 | -1 | 3% | . | -0.6%
CS(=O)(=O)NCCn1ccc2ccccc21 | 10% | 7% | . | ? | -8% | -16 | 0.3%
CC[C@]12C(=O)N(C)C[C@H]([C@@H]3C(=O)N(C)C(=O)[C@@H]31)N2C(=O)c1ccccc1 | 1% | . | -4 | . | -4% | . | -3.2%
O=C1c2ccccc2S(=O)(=O)c2cc(N3CCN(C(=O)c4ccccc4)CC3)ccc21 | . | . | -17 | . | -5% | . | -1.7%
Cc1cnc(C(=O)Oc2cccc(Cl)c2Cl)cn1 | 6%[15.4 µM] | 4% | -4 | 6 | 6% | 3.8 | .
COc1ccc(/C=C(\NC(=O)c2ccco2)C(=O)NC(Cc2ccccc2)C(=O)O)cc1 (centres undefined) | 10% | 2% | 2 | 3 | 2% | -9.1 | .
CCN(C(=O)COC(=O)CCS(=O)(=O)c1ccccc1)c1c(N)n(Cc2ccccc2)c(=O)[nH]c1=O | -9% | . | . | . | 6% | . | 1.8%
COc1ccc(C(=O)N2CCN(C(=O)C3COc4ccccc4O3)CC2)cc1 (centres undefined) | -1% | 12% | . | -3 | 3% | -0.4 | -1.0%
CCC1CCC(C(=O)NNC(=O)c2cc(-c3ccco3)[nH]n2)CC1 (centres undefined) | 4%[15.4 µM] | 45µM* | -10 | 2 | -55% | 17 | .
CCOC(=O)c1c(C)n(CCNC(C)=O)c2ccc(OC)cc12 | -31%[inhibitor] | -10% | -3 | -9 | 7% | 0.9 | -1.4%
COc1ccc(NC2=CC(c3ccc(F)cc3)N(c3ccc(OC)cc3)C2=O)cc1 (centres undefined) | -10% | 13% | -14 | -1 | -12% | 4.4 | 94%
Nc1nc(C(F)(F)F)c(Br)c(=O)n1N | 11%[15.4 µM] | 16% | 19 | -3 | -7% | 1.5 | .
CCN(CC(=O)Nc1ccc(N2CCOCC2)cc1)C(=O)c1ccc(C#N)cc1 | -19%[15.4 µM] | -8% | 1 | -6 | 4% | -1.6 | -3.4%
CC(C)c1cccc(C2=CC(=O)C[C@H](c3ccc4c(c3)OCO4)C2)c1 | 1% | . | . | -6 | -5% | . | -0.4%
COc1cc(OC)cc(C(=O)NNC(=O)CN2C(=O)NC(C)(c3ccc(C)cc3)C2=O)c1 (centres undefined) | 2%[15.4 µM] | . | 1 | 9 | -1% | . | .
Clc1ccccc1CNc1nc2ccccc2n2cnnc12 | 19% | 27% | -6 | 9 | 3% | 5.5 | -4.2%
COCCNC(=O)C1=C(N)C(C(=O)Nc2ccc(C)c(S(=O)(=O)N3CCCCC3)c2)SC1=Nc1ccc(C)cc1C (centres undefined) | 6% | -2% | -2 | 2 | -1% | 3.5 | -6.6%
Cc1cc(NC(=O)C(C)SCC(=O)N(C)CC(=O)Nc2ccccc2C(F)(F)F)no1 (centres undefined) | -5%[15.4 µM] | . | 4 | 7 | -4% | . | 1.8%
CC(C(=O)NCc1ccc2c(c1)OCO2)N(c1ccccc1)S(C)(=O)=O (centres undefined) | 17% | 14% | 4 | 5 | 16% | -2.8 | 1.2%
O=C(NCCc1ccccc1)c1ccc(Cl)c(S(=O)(=O)N2CCCC2)c1 | -4% | 11% | -20 | -3 | -10% | . | -4.0%
CN(C)c1ccc(C(C#N)c2ccccc2)nn1 (centres undefined) | 4% | -13% | 2 | -6 | -3% | -2.9 | .
Cc1cc(C)c(NC(=O)CSc2nc3ncc(Br)cc3[nH]2)c(Cl)c1 | ? | 1% | -3 | 2 | -15% | 0.4 | 0.0%
The list goes on:
SMILES | gsp agonist | Sfp inh | CtBP-E1A blk | TRPV1 potentiator | gsp antagonist | Menin-MLL FL inh | ClpP mod
COC(=O)c1ccc(S(=O)(=O)N2CCOCC2)o1 | 20% | 15% | 1 | 2 | 7% | . | -0.5%
CC[n+]1ccc(C)c2cc(P(=O)(c3ccccc3)c3ccccc3)ccc21 | ? | 3% | -15 | 2 | 9% | 0.9 | .
Cc1ccc(NC(=O)/C(C#N)=C/c2ccc(C)s2)c(C)c1 | -8% | 6% | 0 | -7 | 2% | ? | 0.1%
CC(=O)Nc1nnc(COc2ccccc2)s1 | 1% | 15% | . | -1 | -22% | 1.8 | 1.7%
COC(=O)/C=C1/N/C(=N\c2nc(C)cc(C)n2)N(c2ccccc2)C1=O | 4%[15.4 µM] | -17% | 3 | 16 | 6% | 5.1 | -0.2%
COC(=O)CN(c1cccc(C(C)=O)c1)S(C)(=O)=O | -12% | 12% | -4 | 3 | 10% | 6.9 | -1.1%
CCCNC(=S)NC1CC2CCC(C1)N2Cc1ccccc1 (centres undefined) | -35%[inhibitor] | 15% | 0 | 1 | -8% | -1.2 | 0.4%
COc1ccccc1OCCNC(=O)Cc1ccc(S(=O)(=O)N2CCOCC2)s1 | 0% | . | -16 | -6 | 0% | . | -4.1%
Cc1sc2nc(CN3CCCC3)nc(N3CCC(C(N)=O)CC3)c2c1C | 10% | -3% | 8 | -24 | -3% | 13 | -6.8%
COc1cc(/C=C(\CC(=O)O)c2nc3ccccc3s2)cc(OC)c1O | 3%[15.4 µM] | 35µM* | -2 | 10 | -23% | ? | 0.1%
O=C(Nc1cccc(-c2nc3cc(Cl)ccc3o2)c1)C1CCCO1 (centres undefined) | -12% | -6% | 21 | -1 | -12% | 2.6 | -29%
O=C(NCc1cccs1)c1cccc(Nc2nc3ccc(Br)cc3[nH]2)c1 | . | ? | 3 | -9 | 0% | 1.7 | -4.4%
CC1CCCC(NC(=O)CSc2ncccc2C(=O)O)C1C (centres undefined) | 0% | -4% | 15 | 3 | 6% | 5.4 | -0.3%
CCOC(=O)C1=C(CC)Nc2ccccc2N=C1NC(=O)c1cccc(S(=O)(=O)N2CCOCC2)c1 | 16% | . | -17 | -16 | -20% | . | -1.0%
CC(C)(C)c1ccc(C(=O)NCCC(=O)Nc2ccc3c(c2)OCCO3)cc1 | 3%[15.4 µM] | . | -3 | -7 | -1% | . | -4.5%
Cc1nnc(SCC(=O)Nc2ccc(S(=O)(=O)N3CCCC3)cc2)n1N | -29% | -6% | -1 | 11 | 2% | 2.0 | -1.7%
COc1ccc(N(CC(=O)Nc2cccc(C(=O)O)c2)S(=O)(=O)c2c(C)noc2C)cc1 | -31%[inhibitor] | 18% | -1 | -1 | 8% | 1.0 | -0.3%
COc1ccc(OC)c(C(=O)c2c(C)oc3cc(Br)c(O)c(CN(C)C)c23)c1 | -23%[15.4 µM] | . | -2 | . | -10% | . | -1.9%
O=C(Cn1c(=O)[nH]c2ccsc2c1=O)N1CCN(c2ccc(F)cc2)CC1 | 24% | 5% | -2 | 9 | -24% | -1.1 | -21%
CC1=CC2CC1C1C(=O)N(c3ccc(S(=O)(=O)Nc4nc(C)cc(C)n4)cc3)C(=O)C21 (centres undefined) | 11%[15.4 µM] | 18% | 8 | -1 | -21% | 3.4 | 0.6%
Cc1cc(C)nc(NS(=O)(=O)c2ccc(NC(=O)c3ccc(N4C(=O)CCC4=O)cc3)cc2)n1 | 1% | 5% | 11 | -5 | 4% | 6.8 | -2.6%
COc1cccc2cc(-c3ccnc(N)n3)oc12 | 0%[15.4 µM] | -1% | -4 | -13 | 7% | 6.0 | 0.1%
O=C(N1CCCCC1)C1(c2ccccc2)CCOCC1 | -1% | 5% | -1 | -7 | -1% | -1.2 | -3.4%
CC(=O)N[C@@H](C)c1nc2ccccc2n1CCCN1CCN(c2nc(-c3ccc(C)cc3)cs2)CC1 | -34% | -15% | -5 | 4 | 1% | 0.0 | -0.3%

Complete entries, looked up by structure:
Entry for `Cc1sc2nc(CN3CCCC3)nc(N3CCC(C(N)=O)CC3)c2c1C` = gsp agonist = 10%; Sfp inh = -3%; CtBP-E1A blk = 8; TRPV1 potentiator = -24; gsp antagonist = -3%; Menin-MLL FL inh = 13; ClpP mod = -6.8%
Entry for `CCCNC(=S)NC1CC2CCC(C1)N2Cc1ccccc1` (centres undefined) = gsp agonist = -35%[inhibitor]; Sfp inh = 15%; CtBP-E1A blk = 0; TRPV1 potentiator = 1; gsp antagonist = -8%; Menin-MLL FL inh = -1.2; ClpP mod = 0.4%
Entry for `O=C(N1CCCCC1)C1(c2ccccc2)CCOCC1` = gsp agonist = -1%; Sfp inh = 5%; CtBP-E1A blk = -1; TRPV1 potentiator = -7; gsp antagonist = -1%; Menin-MLL FL inh = -1.2; ClpP mod = -3.4%

Pulled by structure from the list above:
SMILES | gsp agonist | Sfp inh | CtBP-E1A blk | TRPV1 potentiator | gsp antagonist | Menin-MLL FL inh | ClpP mod
O=C(NCc1cccs1)c1cccc(Nc2nc3ccc(Br)cc3[nH]2)c1 | . | ? | 3 | -9 | 0% | 1.7 | -4.4%
COc1ccc(N(CC(=O)Nc2cccc(C(=O)O)c2)S(=O)(=O)c2c(C)noc2C)cc1 | -31%[inhibitor] | 18% | -1 | -1 | 8% | 1.0 | -0.3%
